Marburg entry inh = Marburg virus entry inhibition. 300,000 compounds, 1.8% hits. Potency, µM (doses to about 37.8 µM), without a hit: top-dose activity change, negative = inhibition, usual class: inhibitors. Marburg virus pseudotyped entry inhibition, cell reporter; control for the full effect not named in the record; about a third of the inactives were read at about 46 µM; active = well fitted inhibition curve with a large enough effect; inconclusive = small, poorly fitted or top-dose-only effect, or effect the other way; inactive = flat fitted curve, though single readings scatter; tested in HEK293 cells; about a fifth of its hits are not listed in these tables; further: on the % scale 0 is the no-effect control and ±100 the full control effect; luciferase read-out
2A StopGo = lowers the luciferase signal of an FMDV 2A StopGo reporter | Potency, µM (titrated, usually from 57.9 µM), without a hit: at the top dose signal change, negative = less light | human cells with a luciferase reporter of 2A StopGo recoding; control for the full effect not named in the record | 410,000 compounds, 1.2% hits; active = well fitted falling curve with a large enough effect; inconclusive = small, poorly fitted or top-dose-only effect; inactive = no such curve, though single readings can be large or run the other way; tested in HEK293T cells; further: on the % scale 0 is the no-effect control and ±100 the full control effect; nearly all actives have a fitted effect of over 45% in size; luciferase light after 4 h
RE007 growth inh = less growth of the S. pombe RE007 Vpr strain; Potency, µM (highest dose often 92.2 µM), for the others: top-dose activity change, negative = less growth; 360,000 compounds, 0.21% hits; S. pombe RE007 Vpr strain, BacTiter-Glo ATP luminescence, 24 h; control for the full effect not named in the record; active = well fitted falling curve with a large enough effect; inconclusive = small, poorly fitted or top-dose-only effect; inactive = no such curve, though single readings can be large or run the other way;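 further: on the % scale 0 is the no-effect control and ±100 the full control effect; nearly all actives have a fitted effect of over 50% in size; the assay follows cell death caused by Vpr and the record does not say whether a fall means rescue or toxicity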
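Fission yeast RE007 carrying one integrated HIV-1 vpr copy, seeded at OD 0.01 in PMG+AL medium with 23 nL pinned compound. Grown 24 h at 30 degrees; viability read by BacTiter-Glo luminescence after 5 min.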
SARS PLpro yeast = SARS-CoV PLP inhibition in yeast; S. cerevisiae expressing SARS-CoV PLpro, growth rescue; control for the full effect not named in the record; Potency, µM (titrated, usually from 32.9 µM), inactives show top-dose activity, positive = growth rescue; 330,000 compounds, 0.19% hits; AID 485353; further: 0% is about no effect; nearly all actives have a fitted effect of over 55% in size; growth read by luminescence after 48 h
Cruzain Triton = inhibitors of Trypanosoma cruzi cruzain with detergent. AID 1478. Potency, µM, for inactives: max response, negative = inhibition, usual class: inhibitors. 200,000 compounds, 0.43% hits. purified cruzain, Z-FR-AMC fluorescence, 0.01% Triton; active means well fitted curve in the direction sought with a large enough effect; inconclusive means small, poorly fitted or top-dose-only effect, or another doubt; inactive means no such curve, though single readings can be large; an effect the other way counts as inactive or inconclusive;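 further: plate controls were neutral wells for no effect and buffer without enzyme for full effect; nearly all actives have a fitted effect of over 40% in size; top concentration of the series not given in the record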
Target sequence (P25779 123-467 limits assumed): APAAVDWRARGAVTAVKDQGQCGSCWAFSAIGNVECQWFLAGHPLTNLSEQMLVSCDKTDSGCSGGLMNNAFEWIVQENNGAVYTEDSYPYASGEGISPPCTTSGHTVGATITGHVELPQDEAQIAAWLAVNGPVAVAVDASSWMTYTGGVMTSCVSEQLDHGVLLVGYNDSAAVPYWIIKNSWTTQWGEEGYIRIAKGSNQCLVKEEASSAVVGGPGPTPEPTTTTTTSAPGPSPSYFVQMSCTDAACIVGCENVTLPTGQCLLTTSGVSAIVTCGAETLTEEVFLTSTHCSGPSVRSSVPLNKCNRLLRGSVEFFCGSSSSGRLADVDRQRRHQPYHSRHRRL
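In this qHTS format, compounds are incubated with 1.5 nM cruzain for 15 min at room temperature before 2 uM Z-FR-AMC is added. Release of AMC is followed at 360/450 nm, and progress is taken as the 60 s fluorescence difference.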
Lassa entry inh = inhibitors of Lassa virus binding or cell entry; Potency, µM (top dose mostly 37.9 µM), for inactives: at the top dose activity change, negative = inhibition, hits mostly inhibitors; 300,000 compounds, 1.2% hits; AID 540256; Lassa virus pseudotype entry inhibition, cell reporter; control for the full effect not named in the record; active means well fitted inhibition curve with a large enough effect; inconclusive means small, poorly fitted or top-dose-only effect, or effect the other way; inactive means flat fitted curve, though single readings scatter; tested in HEK293 cells; further: on the % scale 0 is the no-effect control and ±100 the full control effect; nearly all actives have a fitted effect of over 50% in size; luciferase read-out
NS1 inh = inhibitors of influenza NS1 protein function. S. cerevisiae slowed by influenza A NS1, growth recovery by OD600. 270,000 compounds, 0.4% hits. AID 2326. Potency, µM (top dose mostly 46.1 µM), for the others: top-dose activity, positive = more growth; further: actives are rising curves; nearly all actives have a fitted effect of over 50% in size
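Read-out: OD600 growth recovery of NS1-expressing budding yeast. Cells grown overnight at 30C in -URA glucose medium, washed, resuspended and diluted 1:100 in 2% galactose assay medium, pH 6.0. Same strain lacking NS1 served as positive control.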
Cruzain noTriton = cruzain (T. cruzi) inhibition without detergent. P25779. 200,000 compounds, 2.3% hits. purified cruzain, Z-FR-AMC fluorescence, no detergent. Potency, µM, without a hit: max response, negative = inhibition, usual class: inhibitors; active means well fitted curve in the direction sought with a large enough effect; inconclusive means small, poorly fitted or top-dose-only effect, or another doubt; inactive means no such curve, though single readings can be large; an effect the other way counts as inactive or inconclusive;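 further: plate controls were enzyme without inhibitor for no effect and buffer without enzyme for full effect; nearly all actives have a fitted effect of over 40% in size; top concentration of the series not given in the record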
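Purified cruzain at 1.5 nM, pre-incubated 15 min with compound at room temperature in 100 mM sodium acetate pH 5.5, 5 mM DTT, 0.00005% Triton X-100. Reaction started with 2 uM Z-FR-AMC; AMC fluorescence increase over 60 s gives rate.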
Numbers without * were called inactive; ? = inconclusive; . = not tested or not shown; [ ] = remark or other dose. Unless noted, the call rests on the fitted dose curve; in most records, active means well fitted rising curve with a large enough effect; inconclusive means small, poorly fitted or top-dose-only effect; inactive means no such curve, though single readings can be large or run the other way. Potency means the concentration at half of the fitted maximal effect.

Compound,Marburg entry inh,2A StopGo,RE007 growth inh,SARS PLpro yeast,Cruzain Triton,Lassa entry inh,NS1 inh,Cruzain noTriton
O=C(N/N=C/c1ccc(Cl)cc1Cl)C(=O)NC1CC1,-16%[46.1 µM],11%,6%,-1%,.,28%[46.1 µM],.,.
Cc1ccc(NC(=O)C(C)N2CCc3ccccc3C2)cc1 (configuration not stated),?,15%,-2%,-2%,.,-5%[46.1 µM],1%,.
Cc1cccc2cc(-c3ccccc3)c(-c3ccccc3)c[n+]12,?,?,0%,-8%,-6.9%,11µM*,3%,?
O=C(COC(=O)CNC(=O)c1ccc(Cl)cc1Cl)Nc1ccc(N2CCOCC2)cc1,?,4%,11%,0%,.,16%[46.1 µM],-5%,.
CC1(C)C(=O)OC(C(=O)c2ccc(C(C)(C)C)cc2)C(C)(C)C1=O (configuration not stated),?,-12%,19%,-32%,2.4%,6%,-3%,3%
Cc1ccc(-n2nnnc2SC(C)C(=O)NCC(=O)Nc2ccc(F)c(F)c2F)c(C)c1 (configuration not stated),?,-26%,-3%,-15%,-6.6%,?,-4%,?
C#CCOCCOCCOCCNc1nc(N2CCN(C(=O)Cn3cc(CCCCN)nn3)CC2)nc(N2CCN(C(=O)Cn3cc(CCCCN)nn3)CC2)n1,15%,-5%,-7%,-9%,-1.2%,20%,6%,5%
Cc1cc(NC(=O)c2noc3c2CCCC3)no1,13%,52%[activator],?,25%,1.1%,-46%[14.3 µM],-6%,-1%
COc1ccc(S(=O)(=O)N2CCN(C(=O)c3c(-c4ccccc4)noc3C)CC2)cc1,7%[46.1 µM],0%,28%,-19%,1.8%,-13%,-1%,?
COC(=O)c1cn(CCOc2ccccc2)c2ccccc12,-26%,-19%,-6%,-12%,-0.7%,?,-30%,-1%
COc1ccc(CNC(=O)CS(=O)Cc2nc(-c3ccccc3C)oc2C)cc1 (configuration not stated),.,-18%,3%,1%,-1.9%,.,-1%,12%
CCOC(=O)C1=C(O)/C(=C/c2cc(OC)c(OC)c(OC)c2)N=C1C,0%,?,5%,-1%,2.5%,15%,22%,-4%
COc1ccc(NC(=O)c2ccc(S(=O)(=O)N3CCCCCC3)cc2)c(OC)c1,?,-11%,5%,2%,.,-21%,-43%,.
COC(=O)c1ccc(C2c3c(oc4ccc(Cl)cc4c3=O)C(=O)N2CCN2CCOCC2)cc1 (configuration not stated),?,3%,2%,2%,.,24%[46.1 µM],-3%,.
CCS(=O)(=O)C(=C(Nc1ccc(OC)cc1)Nc1ccc(OC)cc1)S(=O)(=O)CC,21%,-14%,-5%,5%,-1.7%,-14%,-3%,-3%
Cc1ccc(Cl)cc1N(C)C(=O)c1cn(C2CCCCC2)c(=O)c2c1c1ccccc1n2C,0%[46.1 µM],?,.,.,-5.3%,?,.,-20%
Cn1c(=O)n(C)c2cc(NC(=O)CSc3ccccc3)ccc21,-12%[46.1 µM],?,2%,11%,.,20%[46.1 µM],10%,.
CC(=O)N1CCc2c(sc(NC(=O)Cc3ccc(F)cc3)c2C(N)=O)C1,.,-1%,13%,?,.,.,5%,.
O=C1CC2C(=O)NCCN2C(=NC(=O)c2ccc(Cl)cc2)N1 (configuration not stated),16%[46.1 µM],0%,-6%,-1%,.,.,.,.
CCCCC(=O)Nc1ccc2c(c1)nc(CCN1CCN(c3ccccn3)CC1)n2C,.,-7%,-3%,0%,.,.,-1%,.
C[C@@]12C(=O)N(Cc3ccccc3)CC(=O)N1[C@H](/C=C/c1ccccc1)[C@@H]1C(=O)N(c3ccccc3)C(=O)[C@@H]12,.,-4%,2%,-7%,.,.,-3%,.
COc1ccc2cc(CCNC(=O)C3CCCC3)c(=O)[nH]c2c1,.,19%,7%,-3%,-0.4%,.,-36%,-13%
CN(C)CC/C=C1\c2ccccc2CSc2ccccc21,.,0%,-2%[18.4 µM],.,-0.2%,.,.,-11%
CCOC(=O)c1c(/N=C/C2=C(O)CC(C)(C)CC2=O)sc(C)c1C,-7%,-5%,-4%,-2%,-8.0%,0%,-2%,?
CN(C)c1ccc(NC(=O)CSc2nc3c(c(=O)[nH]2)CCCC3)cc1,5%,3%,5%,-1%,-0.5%,13%,9%,-15%

No new results follow: an excerpt of the list.
Compound,Marburg entry inh,2A StopGo,RE007 growth inh,SARS PLpro yeast,Cruzain Triton,Lassa entry inh,NS1 inh,Cruzain noTriton
CCOC(=O)c1c(/N=C/C2=C(O)CC(C)(C)CC2=O)sc(C)c1C,-7%,-5%,-4%,-2%,-8.0%,0%,-2%,?
CN(C)c1ccc(NC(=O)CSc2nc3c(c(=O)[nH]2)CCCC3)cc1,5%,3%,5%,-1%,-0.5%,13%,9%,-15%

Entries of single compounds from above. Order of screens: Marburg entry inh	2A StopGo	RE007 growth inh	SARS PLpro yeast	Cruzain Triton	Lassa entry inh	NS1 inh	Cruzain noTriton
Profile of `COc1ccc(S(=O)(=O)N2CCN(C(=O)c3c(-c4ccccc4)noc3C)CC2)cc1` = 7%[46.1 µM]	0%	28%	-19%	1.8%	-13%	-1%	?
Profile of `CC1(C)C(=O)OC(C(=O)c2ccc(C(C)(C)C)cc2)C(C)(C)C1=O` (configuration not stated) = ?	-12%	19%	-32%	2.4%	6%	-3%	3%
Profile of `COc1ccc(NC(=O)c2ccc(S(=O)(=O)N3CCCCCC3)cc2)c(OC)c1` = ?	-11%	5%	2%	.	-21%	-43%	.

Later entries
Compound,Marburg entry inh,2A StopGo,RE007 growth inh,SARS PLpro yeast,Cruzain Triton,Lassa entry inh,NS1 inh,Cruzain noTriton
COc1ccccc1CNC(=O)Cc1csc2nc(-c3ccc(F)cc3)cn12,.,-4%,.,.,-4.9%,-10%[46.1 µM],.,-6%
O=C(CSc1ncnc2sccc12)Nc1ccc(S(=O)(=O)N2CCOCC2)cc1,22%,?,-9%,6%,.,-5%,.,.
COc1ccc(S(=O)(=O)N(C)c2ccc(C(=O)N3CCCCC3)cc2)cc1OC,-16%[46.1 µM],?,2%,2%,.,?,-2%,.
O=C(CCSCc1cccc(Cl)c1)NCCC1=CCCCC1,?,-15%,-12%,-30%,-6.6%,-3%,-20%,-2%
O=C(NN1CCOCC1)c1ccc(Cl)c([N+](=O)[O-])c1,.,-18%,2%,-2%,.,.,10%,.
Brc1ccccc1/C=N/Nc1ccc2ccccc2n1,11µM*,-60%,?,-60%,-22%,?,-23%,-5%
Cc1nn(-c2ccccc2)c(Cl)c1C(=O)Nc1nnc(C2CCCC2)s1,9%,-27%,-8%,-20%,-6.3%,-3%,-40%,-6%
CC(C)(C)NC(=O)COC(=O)c1ccccc1Oc1ccccc1,19%[46.1 µM],-8%,4%,-1%,.,-1%[46.1 µM],-40%,.
COCc1c(C(=O)OCC(=O)c2c(N)n(CC(C)C)c(=O)n(C)c2=O)oc2ccccc12,-28%,32µM*,-1%,2%,-2.4%,-27%,10%,?
COc1ccc(NS(=O)(=O)c2ccc(N3CCOCC3)c(NC(=O)c3ccc(F)cc3)c2)cc1,3.5µM*,72%[activator],6%,21%,-3.0%,?,26%,3%
Cc1cccc(/C=N/NC(=O)c2cc(-c3cccnc3)nc3c2c(C)nn3-c2ccccc2)c1,4%,-15%,8%,?,-6.2%,24%,10%,-1%
COc1cccc(C(=O)N/N=C/c2ccc(Oc3ccc([N+](=O)[O-])cn3)c(OC)c2)c1,?,-15%,-8%,7%,-0.9%,-22%,14%,-5%
CCOC(=O)c1c(N)sc(N)c1C(=O)OCC,-11%,32µM*,-15%,?,-6.0%,-4%,9%,-13%
CC(C)(C)NC(=O)CN(C(=O)CCC(=O)Nc1nccs1)c1ccc(F)c(Cl)c1,-2%[46.1 µM],-18%,9%,1%,.,-5%[46.1 µM],3%,.
COc1ccccc1N1CCN(C(=O)c2cnn(C(C)(C)C)c2C2CCN(C(=O)OC(C)(C)C)CC2)CC1,.,-22%,.,.,1.3%,?,.,?
Cc1ccc(OCCNC(=O)Cc2ccc(S(=O)(=O)N3CCOCC3)s2)cc1,2%,-23%,-13%,7%,.,-4%,11%,.
CSc1ccccc1NC(=O)CSc1nnc(Cc2ccccc2)o1,3%[46.1 µM],-18%,-8%,19%,.,-12%,-7%,.
CCc1ccc(NC(=O)CCCN2C(=S)NC(C)(C)CC2C)cc1 (configuration not stated),4%[46.1 µM],-11%,10%,6%,.,5%,.,.
NC(=O)C1=C[C@H](c2ccccc2)C[C@H](OCc2ccc(CO)cc2)O1,.,42%[activator],-9%,0%,.,.,-2%,.
O=S(=O)(c1ccccc1)c1nc(-c2ccccc2Cl)oc1NCCN1CCOCC1,-3%,27%,2%,20%,-11%,?,4%,-3%
N/C(=N\[N+](=O)[O-])N/N=C/c1ccc(O)cc1,-2%,-1%,14%,-4%,-13%,-3%,4%,-16%
CCCCOc1ccc(CNC(=O)c2ccc(NC(=O)N3CCCCc4ccccc43)cc2)cc1,.,-19%,.,.,-2.4%,24%[46.1 µM],.,2%
CC1CC(C)CN(C(=O)Cn2nnc(-c3ccccc3)n2)C1 (configuration not stated),12%[46.1 µM],6%,10%,-13%,.,-4%[46.1 µM],-9%,.
Cc1nc2cc(NC(=O)Nc3nccs3)ccc2n1C,?,.,-11%,1%,-0.6%,13µM*,-2%,-13%
Cc1ccc(C(=O)NNC(=O)C2CCN(c3ncccn3)CC2)cc1,1%[46.1 µM],3%,-10%,1%,.,0%[46.1 µM],-8%,.

From PubChem BioAssay

Rows are unselected (roughly 4.5% active in at least one column).
